High-throughput results as filed in PubChem.
Mtb MenB inh = M. tuberculosis MenB inhibitors, primary screen, biochemical, absorbance; inhibition, %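 (about 12 µg/mL by stock and volumes)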; actives 0.43% (n = 100,000); AID 540299, 2011; 1,4-dihydroxy-2-naphthoyl-CoA synthase (Mycobacterium tuberculosis (strain ATCC 25618 / …; MenB enzyme assay, absorbance read-out; some hits fall short of the stated cut;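 active = mean of two replicates above 30%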;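 also: 0% = no compound and 100% = wells with inactive enzyme; the first replicate is given; strong numbers were not always called active; inactives centre near -10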
MbtI inh = MbtI salicylate synthase inhibitors, primary screen, biochemical, fluorescence intensity; actives 0.89% (n = 100,000); inhibition, %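 (about 17 µg/mL by stock and volumes)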; AID 493033, 2011; purified MbtI enzyme, fluorescence intensity read-out;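 active = above 50% in both replicates, above 80% if mildly self-fluorescent; inactive = the rest, strongly fluorescent compounds included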;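 also: 0% = mean of negative and 100% = mean of positive controls; one replicate is shown; some compounds called inactive have numbers as strong as hits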
Target sequence (P9WFX0 whole entry, looked up): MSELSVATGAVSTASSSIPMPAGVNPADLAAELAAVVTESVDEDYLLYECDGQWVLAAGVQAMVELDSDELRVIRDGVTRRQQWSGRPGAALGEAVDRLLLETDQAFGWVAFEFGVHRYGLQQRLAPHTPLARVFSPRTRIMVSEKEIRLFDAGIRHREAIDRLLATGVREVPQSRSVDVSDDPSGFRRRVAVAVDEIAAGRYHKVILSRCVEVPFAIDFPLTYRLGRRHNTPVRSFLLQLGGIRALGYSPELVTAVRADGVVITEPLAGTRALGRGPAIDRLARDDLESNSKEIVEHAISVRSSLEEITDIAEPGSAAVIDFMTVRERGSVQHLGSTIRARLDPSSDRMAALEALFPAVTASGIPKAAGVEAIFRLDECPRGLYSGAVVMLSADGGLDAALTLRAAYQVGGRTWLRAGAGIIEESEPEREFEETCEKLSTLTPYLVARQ
PV pol inh = poliovirus RdRp elongation inhibitors, primary screen, biochemical, fluorescence polarization, total intensity; Genome polyprotein (Poliovirus type 1 (strain Mahoney)), P03300; poliovirus polymerase elongation; hits give low values; % elongation, % (compound at 16.7 µg/mL); actives 0.66% (n = 150,000); AID 588519, 2011; in the data active = % elongation below about 90%; also: some results filed as inactive read as strong as hits
Target sequence (P03300 1749-2209 limits assumed): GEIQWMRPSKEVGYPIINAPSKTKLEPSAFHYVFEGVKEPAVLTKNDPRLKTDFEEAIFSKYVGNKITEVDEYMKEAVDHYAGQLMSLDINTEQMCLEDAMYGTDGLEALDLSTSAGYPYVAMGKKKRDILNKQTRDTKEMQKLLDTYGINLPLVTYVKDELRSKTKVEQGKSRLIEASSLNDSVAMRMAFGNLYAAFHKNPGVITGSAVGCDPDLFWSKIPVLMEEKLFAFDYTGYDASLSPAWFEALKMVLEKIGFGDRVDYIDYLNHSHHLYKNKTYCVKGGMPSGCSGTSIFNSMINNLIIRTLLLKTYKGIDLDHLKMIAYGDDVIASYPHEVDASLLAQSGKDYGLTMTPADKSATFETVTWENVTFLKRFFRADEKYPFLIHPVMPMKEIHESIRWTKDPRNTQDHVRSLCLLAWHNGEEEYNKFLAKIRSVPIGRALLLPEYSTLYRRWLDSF
PV pol inh intensity = recorded beside PV pol inh, whose call it bears; % elongation; measured here: total intensity read-out; formula for this scale not given here;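 total fluorescence in place of polarization; lower means less elongation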
* marks the source's active call; other numbers are inactive results; · = no result given; & = joins results of further samples.

no.	Structure	Mtb MenB inh	PV pol inh	PV pol inh intensity	MbtI inh
1	Cc1nc2ccccc2n1CC(=O)NC(C)C1CC2CCC1C2 (configuration not stated)	-1	105	123	-9
2	CCOc1cc(/C=C(/C#N)c2cccc(Br)c2)ccc1OCc1ccc(C(=O)O)o1	2	100	105	-6
3	C=CCNC(=O)c1sc2cc(Cl)ccc2c1Cl	-25	106	107	·
4	O=c1nc2s/c(=C\c3cccs3)c(=O)n2nc1Cc1ccccc1	-5	103	108	-10
5	O=S(=O)(c1ccc(Cl)cc1)n1cnc2ccccc21	8	101	103	-1
6	CCOC(=O)C1=C(c2ccccc2)N(C)C(=O)NC1c1ccccc1F (configuration not stated)	-48	99	101	7
7	CCc1ccc(NC(=O)Cn2nc(C)n3cccc3c2=O)cc1	16	101	103	-16
8	CCN1C(=O)C(Cc2c[nH]c3ccccc23)NC1=S (configuration not stated)	-4	98	100	-10
9	COc1ccccc1-n1nnnc1SCC(=O)NC1CCCCC1	-22	102	103	7
10	NC(=O)COc1ccc(/C=N/NC(=O)c2ccc(CN3CCOCC3)cc2)cc1	-5	101	102	9
11	O=C1CC(N2c3cccc4cccc(c34)S2(=O)=O)C2COC1O2 (configuration not stated)	-16	103	105	·
12	COc1cc(/C=N/N(C)C(=S)Nc2cccc(Cl)c2C)cc(OC)c1OC	-21	110	115	-4
13	COc1ccccc1N1CCN(CCCOc2cc(C)ccc2C(C)C)CC1	-28	101	101	-14
14	CC(C)CN1CC23C=CC(O2)C(C(=O)OC(C)C)C3C1=O (configuration not stated)	-11	101	99	3
15	O=C(CON1C(=O)CCC1=O)Nc1cccc2ccccc12	1	103	101	-6
16	O=C1CCCC/C1=N\Nc1ccc(CN2CCCCC2)cc1	-59	99	102	3
17	O=C(CSc1ncccc1C(=O)N1CCC(Cc2ccccc2)CC1)c1ccccc1	-12	104	107	3
18	O=C1CCC(NC(=O)OCc2ccccc2)(C(=O)OCc2ccccc2)O1 (configuration not stated)	1	100	103	15
19	Nc1ccc2nc(SCC(=O)n3c4c(c5ccccc53)CCCC4)sc2c1	-10	103	104	24
20	O=C(Nc1ccc(Br)cc1)c1c[nH]c2ccccc2c1=O	5	103	93	·
21	O=C(CSC1=NCCS1)N1CCCC1	·	101	96	-3
22	O=C1NC(=O)C(c2ccccc2)N1 (configuration not stated)	-2	106	108	-3
23	c1ccc2c(NC3C4CC5CC(C4)CC3C5)nc(N3CCOCC3)nc2c1 (configuration not stated)	19	101	104	85
24	CC(C)CNS(=O)(=O)c1ccc(F)cc1	-12	106	111	·
25	O=C(NN1C(=O)C2C3c4ccccc4C(c4ccccc43)C2C1=O)c1cccnc1 (configuration not stated)	13	102	102	-13
26	CC1CC1C(=O)Nc1ccc2[nH]ncc2c1 (configuration not stated)	13	103	103	-1
27	N#C/C(=C\C1=C(N2CCOCC2)C(=C/c2ccc(Cl)cc2Cl)/CC1)c1nnc(N2CCOCC2)n1-c1ccccc1	-29	116	125	13
28	CN1CCN(c2nc(-c3ccc(Cl)s3)cs2)CC1	-25	105	96	-9
29	CC1(C)CSC(=Nc2cccc(C(F)(F)F)c2)N1C(=O)/C=C/c1ccco1	-39	100	90	-1
30	COc1ccc(CN2CC(C(=O)NCCC(C)C)CC2=O)cc1 (configuration not stated)	-9	101	101	-14

Looked up by compound from the list above, six records:
no.	Structure	Mtb MenB inh	PV pol inh	PV pol inh intensity	MbtI inh
6	CCOC(=O)C1=C(c2ccccc2)N(C)C(=O)NC1c1ccccc1F (configuration not stated)	-48	99	101	7
9	COc1ccccc1-n1nnnc1SCC(=O)NC1CCCCC1	-22	102	103	7
27	N#C/C(=C\C1=C(N2CCOCC2)C(=C/c2ccc(Cl)cc2Cl)/CC1)c1nnc(N2CCOCC2)n1-c1ccccc1	-29	116	125	13
30	COc1ccc(CN2CC(C(=O)NCCC(C)C)CC2=O)cc1 (configuration not stated)	-9	101	101	-14
26	CC1CC1C(=O)Nc1ccc2[nH]ncc2c1 (configuration not stated)	13	103	103	-1
22	O=C1NC(=O)C(c2ccccc2)N1 (configuration not stated)	-2	106	108	-3

Carrying on:
no.	Structure	Mtb MenB inh	PV pol inh	PV pol inh intensity	MbtI inh
31	O=C(OCC1CCCO1)c1c(Cl)cccc1Cl (configuration not stated)	18	104	102	20
32	COC(=O)c1ccc(COC(=O)c2ccc(I)cc2)cc1	·	104	105	-9
33	CCOC(=O)c1c(CN(C)C)oc2ccc(O)cc12	-11	105	101	-15
34	CCOC(=O)N1CCN(C(=O)c2cnn3c(C(F)(F)F)cc(-c4cccc(OC)c4)nc23)CC1	3	100	101	5
35	Cc1nn(C2CCS(=O)(=O)C2)c(C)c1CN(C)C(=O)c1ccc(S(=O)(=O)N(C)C)cc1 (configuration not stated)	-11	102	110	-5
36	O=C(Nc1cc(=O)[nH]c(=O)[nH]1)c1cccc(C(F)(F)F)c1	-17	103	107	5
37	Cc1cc(C)n(-c2ccc(C(=O)Nc3ccc4c(c3)OCCO4)cc2)n1	·	105	109	2
38	CN(Cc1ccccc1F)C(=O)c1ccccc1S(C)(=O)=O	-26	103	98	-3
39	CCOc1ccc(NC(=O)CC2C(=O)N(CC)C(=S)N2NC(=O)c2ccncc2)cc1 (configuration not stated)	8	100	101	26
40	COC(=O)C1=CCCN(C)C1	10&9	99&98	99&101	1&-10
41	C[C@@H]1C[C@H]2[C@@H]3C[C@H](F)C4=CC(=O)C=C[C@]4(C)[C@@]3(Cl)[C@@H](O)C[C@]2(C)[C@H]1C(=O)COC(=O)C(C)(C)C	0	101	100	2
42	CN(C(=O)c1ccc2c(c1)N(Cc1ccc(F)cc1)C(=O)c1ccccc1S2=O)C1CCCCC1 (configuration not stated)	-25	102	100	-4
43	COc1ccc(-n2c(C)nnc2SCC(=O)NCc2cc3cc(Cl)ccc3n2C)cc1	-48	103	105	-2
44	COc1cccc(COC(=O)c2ccc3c(c2)C(=O)N(Cc2ccncc2)C3=O)c1OC	-24	102	106	-8
45	CC(Oc1ccc2c(=O)c(-c3ccc(Cl)cc3)coc2c1)C(=O)O (configuration not stated)	-6	97	98	-221
46	O=C(O)c1ccc(Sc2ccccc2C(=O)O)c(C(=O)O)c1	-7	99	97	5
47	CC(C(=O)Nc1nccs1)C1SC(=O)NC1=O (configuration not stated)	9	101	105	-13
48	C=CCn1c(N)c(S(=O)(=O)c2cccc(C)c2)c2nc3ccccc3nc21	-22	·	·	-22
49	COc1ccc(C(C(=O)NC2CCCC2)N(Cc2ccc(C)cc2)C(=O)c2ccn[nH]2)cc1OC (configuration not stated)	14	100	101	-2
50	CCCNCc1nc(-c2cccc(C)c2)no1	16	99	104	1
51	COCc1ccccc1Cn1cnc2ccccc21	2	99	101	5
52	O=S(=O)(NNc1c(Cl)cncc1Cl)c1ccc2c(c1)OCC2	-3	101	95	8
53	CC(=O)Oc1ccc2c(=O)c(Oc3cc(C)cc(C)c3)coc2c1	-37	103	106	-14
54	c1ccc2[nH]c(C3CCCNC3)nc2c1 (configuration not stated)	6	102	100	-10
55	COc1ccc(N2CCN(C(=NCCc3ccccc3)Nc3ccc(C(=O)O)cc3)CC2)cc1	6	100	102	-4
56	CC(C(=O)Nc1ccc(F)c(F)c1F)N1C(=O)c2ccccc2S1(=O)=O (configuration not stated)	-19	101	92	7
57	COc1ccc(C2(CNC(=S)Nc3ccccc3)CCOCC2)cc1	-27	103	105	-21
58	Cc1nc2nc(NC(=O)C(C)(C)C)[nH]n2c(=O)c1Cc1ccccc1	-20	102&100	91&108	-2
59	S=C(NCc1ccco1)SCc1cn2cccnc2n1	-32	103	99	-60
60	O=C(NCCCN1CCCCCC1)c1ccc(N2CCCC2=O)cc1	17	100	102	5

Brought forward from above: 3 entries, then new ones.
no.	Structure	Mtb MenB inh	PV pol inh	PV pol inh intensity	MbtI inh
58	Cc1nc2nc(NC(=O)C(C)(C)C)[nH]n2c(=O)c1Cc1ccccc1	-20	102&100	91&108	-2
59	S=C(NCc1ccco1)SCc1cn2cccnc2n1	-32	103	99	-60
60	O=C(NCCCN1CCCCCC1)c1ccc(N2CCCC2=O)cc1	17	100	102	5
61	O=C(Nc1ccc2ccccc2c1)C1CCC1	1	98	104	-14
62	COC(=O)C1=C(C)N=c2s/c(=C/c3ccco3)c(=O)n2C1c1ccc(OC)cc1 (configuration not stated)	-40	102	102	-2
63	COc1ccc(N2CCN(C(=O)c3ccc(NS(=O)(=O)c4ccc(F)c(F)c4)cc3)CC2)cc1	-19	105	108	-3
64	CCOC(=O)CCn1cnc2cc(Br)ccc2c1=O	-13	92	95	18
65	O=C(Nc1nnc(-c2ccc3c(c2)CCCC3)o1)c1ccc(NS(=O)(=O)c2ccc(F)cc2)cc1	-62	102	100	-21
66	Cc1nc(SC(C#N)Cc2ccccc2)c2ccccc2n1 (configuration not stated)	-53	99	107	-9
67	CCc1cccc2c1NC(=O)C21OCCO1	-21	100	105	5
68	CSc1ccc(Cl)c(C(=O)OCC(=O)NCC2CCCCC2)c1	·	103	101	-7
69	CCOC(=O)c1c(S(=O)(=O)Nc2ccc3c(c2)OCCO3)c(C)n(C)c1C	-30	104	98	-8
70	Cn1cc(NC(=O)NCCSc2c[nH]c3ccccc23)c2ccccc21	-7	102	102	-38
71	CN1CCC(O)(c2ccccc2)CC1	7	103	107	·
72	Cc1noc(C)c1C(=O)N(C)Cc1ccccc1	19	101	102	-4
73	Cc1cc2nc(C)n(CCCNC(=O)NC34CC5CC(CC(C5)C3)C4)c2cc1C	-12	103	98	-11
74	CC(=O)Nc1ccc(S(=O)(=O)NCCC(=O)Nc2nc(C)cs2)cc1	-2	101	111	-5
75	Cc1cc(NCC2CCCO2)n2c(nc3ccccc32)c1C#N (configuration not stated)	-3	101	112	89
76	COc1ccccc1C(=O)Nc1ccccc1SCc1cc(=O)n2nc(C3CC3)sc2n1	-26	102	102	-23
77	O=S(=O)(NCc1ccco1)c1ccc(Cl)cc1	-20	104	101	-14
78	O=C(NC12CC3CC(CC(C3)C1)C2)N1CC2Cc3cccc(=O)n3C(C2)C1 (configuration not stated)	-13	104	102	2
79	CCOC(=O)c1c(C)[nH]c(C)c1S(=O)(=O)N1CCCCC1	-22	102	102	-17
80	COCCNC(=O)c1cn(Cc2cccc3ccccc23)nn1	-5	102	105	-6
81	CSC(=NS(=O)(=O)c1ccc(C)cc1)SC	3	100	102	-8
82	CC(C(O)c1ccccc1)N(C)C(=O)c1ccccc1 (configuration not stated)	·	101	95	-7
83	CC(C)[C@H](NS(=O)(=O)c1cccc(C(F)(F)F)c1)C(=O)OCc1nnc(-c2ccccc2)o1	-36	98	95	8
84	NC(=O)CN1C(=O)CC(c2ccccc2)Sc2ccccc21 (configuration not stated)	-22	103	105	6
85	O=C1c2[nH]nc(-c3ccccc3O)c2C(c2ccccc2)N1CCc1ccccc1 (configuration not stated)	-36	105	106	-13
86	Cc1cc(C)n(-c2n[nH]c(=S)c3ccccc23)n1	5	100	102	-5
87	CCOc1ccc(CCNC(=O)CCc2c(C)nc3nc[nH]n3c2=O)cc1OCC	-36	100	103	-4
88	N=C1C(c2nc3ccccc3s2)=C(O)CN1N1C(=O)c2ccccc2C1=O	0	89*	99*	54
89	FC(F)(F)c1cnc(NN=C2CCSCC2)c(Cl)c1	-17	104	98	54
90	CC(=O)N1CCN(S(=O)(=O)c2ccc(C)cc2)C1C (configuration not stated)	-57	101	102	5
91	CC(Sc1ccc(S(=O)(=O)N2CCN(C)CC2)cn1)C(=O)NC1(C#N)CCCCC1 (configuration not stated)	1	104	98	16
92	CCCC(C(N)=O)C1=NC2(CCCCC2)Cc2ccccc21 (configuration not stated)	-5	100	102	·
93	CCOC(=O)C1CCN(C(=O)c2ccc(NS(=O)(=O)c3ccc(OCC)cc3)cc2)CC1	-33	95	92	5
94	COc1nc(Nc2ccccc2)nc(NC(C)C)n1	12	99	99	-4
95	CC1(C)OC(C(N)=O)C(C(N)=O)O1 (configuration not stated)	-4	101	101	-2
96	COc1cccc(C(=O)NCc2ccccc2OC)c1	8	100	105	4
